# T cruzi inh = T. cruzi replication inhibition; T. cruzi beta-gal in NIH3T3, luminescence, 90 h; inhibition, % (no concentration beside the values); 300,000 tested, 1.4% active;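 active = mean inhibition across valid replicates above about 55%, limit read from the data; inconclusive = mean below that limit but half or more replicates reach it; inactive = mean below it, under half of replicates reach it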;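 also: signal also drops with host cell toxicity which is not excluded here; 0% = plate median of DMSO wells and 100% = zero luminescence signal; higher percent means less beta-gal luminescence so fewer parasites; stock transfer was 50 nL into about 50 µL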
# Ecoli rRNA inh = inhibitors of bacterial rRNA selective over humanized ribosomes. E. coli WT GFP vs humanized-ribosome RFP mutants, fluorescence, 24 h; hits give low values; DMSO median 0, no signal -100. 350,000 tested, 1.6% active. AID 720706. GFP signal change (wild-type ribosome), % (test concentration not listed);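 active = significant combined selectivity score with lowered wild-type GFP, culture density cut under 30%, mutant RFP and density less affected; inactive = any of these conditions unmet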; also: one replicate is shown; some compounds called inactive have numbers as strong as hits
# Beta apoptosis = beta cell apoptosis inhibition. 300,000 tested, 0.8% active. AID 435005. INS-1E cytokine-induced death, ATP luminescence, 48 h; percent of positive-control rescue, neutral wells zero. protection from apoptosis, % (no concentration beside the values);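 active = all replicates at 75% or more, or half of them and the mean; inconclusive = half reach 75% but not the mean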;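 also: 0% = cytokine-treated negative control wells and 100% = positive control rescue; higher means more ATP so stronger rescue from cytokine killing; wells of about 40 µL received 100 nL stock; the first replicate is given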
# RanGTP-Impb inh = disruptors of Ran-importin-beta complex formation – biochemical, FRET, CFP-Ran, YFP-importin-beta, homogeneous, primary screen | cell-free CFP-Ran/YFP-importin-beta FRET ratio | inhibition, % (test concentration not listed) | 300,000 tested, 1.1% active;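 active = most replicates above 15%; inconclusive = exactly half above 15%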;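 also: 0% = DMSO wells and 100% = Ran loaded with GDP instead of GTP; wells of about 40 µL received 100 nL stock; the first replicate is given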
# ALR H2O2 inh = blocks human ALR sulfhydryl oxidase activity | purified ALR, DTT oxidation, H2O2 HRP-luminol luminescence | inhibition, % (concentration not given with the values) | 290,000 tested, 3.8% active | AID 485317;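 active = mean and each replicate at 75% or more; inconclusive = only one of the two met; inactive = neither met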;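 also: stock transfer was 7.5 nL into about 7.5 µL; 0% = neutral wells and 100% = wells with inactivated enzyme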
# Target sequence (P55789 whole entry, looked up): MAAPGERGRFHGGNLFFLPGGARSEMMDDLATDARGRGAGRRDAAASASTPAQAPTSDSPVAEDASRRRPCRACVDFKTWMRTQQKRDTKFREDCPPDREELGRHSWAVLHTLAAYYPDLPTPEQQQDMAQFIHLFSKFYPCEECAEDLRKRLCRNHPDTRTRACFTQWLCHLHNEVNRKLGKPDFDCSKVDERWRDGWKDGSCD
# AF4-AF9 inh = blocks AF4 peptide binding to human AF9. P42568. AlphaScreen, biotin-AF4 peptide binding to FLAG-AF9. inhibition, % at 10 µM. 350,000 tested, 0.47% active;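 active = every replicate reaching a set inhibition limit, whatever the replicate mean, cut at about 25% in these data; inconclusive = mean inhibition reaches that limit but some replicates miss it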;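 also: 0% = plate neutral control median and 100% = total signal loss; the record names both 10 and 1 µM as test concentration; the first replicate is given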
# Target sequence (P42568 whole entry, looked up): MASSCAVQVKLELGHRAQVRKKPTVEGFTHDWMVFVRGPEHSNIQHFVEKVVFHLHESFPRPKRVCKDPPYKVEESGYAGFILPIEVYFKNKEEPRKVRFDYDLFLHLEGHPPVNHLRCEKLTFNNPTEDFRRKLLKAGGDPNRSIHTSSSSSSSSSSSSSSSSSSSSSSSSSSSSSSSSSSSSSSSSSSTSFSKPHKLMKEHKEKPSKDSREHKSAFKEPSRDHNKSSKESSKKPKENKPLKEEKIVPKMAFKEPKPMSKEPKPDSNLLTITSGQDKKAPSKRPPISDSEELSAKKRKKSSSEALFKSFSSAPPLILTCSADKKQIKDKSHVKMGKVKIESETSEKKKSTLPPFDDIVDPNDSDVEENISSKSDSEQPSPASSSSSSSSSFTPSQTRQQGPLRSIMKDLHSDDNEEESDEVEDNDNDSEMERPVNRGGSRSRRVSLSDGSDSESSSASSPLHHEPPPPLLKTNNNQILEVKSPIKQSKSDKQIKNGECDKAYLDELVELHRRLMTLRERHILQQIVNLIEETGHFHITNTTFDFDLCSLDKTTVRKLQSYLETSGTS
# Calb FLC = C. albicans growth modulation with fluconazole; C. albicans CaCi-2 (fluconazole-resistant clinical isolate) + fluconazole, Alamar Blue growth, 48 h; growth inhibition, % (no concentration beside the values); 300,000 tested, 0.57% active;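 active = most replicates above 75%; inconclusive = exactly half above 75%; inactive = most below 75%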;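 also: all wells also contain fluconazole at 8 µg/ml as a sub-toxic cotreatment; 0% = median of DMSO wells and 100% = median of geldanamycin control wells; wells of about 8 µL received 7.5 nL stock; the first replicate is given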
# FGF22 binding = shifts melting point of recombinant human FGF22; Q9HCT0; recombinant FGF22 thermal shift, SYPRO orange fluorescence; percent of sucrose octasulfate shift, DMSO zero; calls only at 9.99 µM; 340,000 tested, 1.5% active;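 active = melting point raised past a set limit in the mean and every replicate; inconclusive = no clear call; three in four hits are not shown here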
# Target sequence (Q9HCT0 whole entry, looked up): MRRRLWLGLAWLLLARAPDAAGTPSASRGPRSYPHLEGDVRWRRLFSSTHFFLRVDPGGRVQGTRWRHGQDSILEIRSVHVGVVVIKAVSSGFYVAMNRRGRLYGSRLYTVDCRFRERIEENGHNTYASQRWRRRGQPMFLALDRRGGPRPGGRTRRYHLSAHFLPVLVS
# Ecoli rRNA inh OD600 = further read-out of Ecoli rRNA inh, marked with its call; OD600 change, %; measured here: OD600 growth;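 optical density of the mix in the first replicate; 0 = DMSO median and -100 = no signal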
# Ecoli rRNA inh RFP = further read-out of Ecoli rRNA inh, marked with its call; RFP signal change, %; measured here: RFP humanized mutant strains;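 first replicate; 0 = DMSO median and -100 = no signal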
# * = called active by the depositor; i = inactive; ? = inconclusive; . = no result given. An excerpt; count on the stated rates, not on these rows.
canonical_smiles	FGF22 binding	Beta apoptosis	Ecoli rRNA inh OD600	ALR H2O2 inh	Calb FLC	RanGTP-Impb inh	AF4-AF9 inh	Ecoli rRNA inh RFP	T cruzi inh	Ecoli rRNA inh
COc1cc(C(=O)c2ccccc2)c(OC)cc1C(=O)Nc1ccc(O)cc1	i	2	4	100*	-10	7.9	8.1	-4.2	-45	3
O=C(c1cc(-c2ccc(F)cc2)no1)N1CCN(Cc2ccc3c(c2)OCO3)CC1	i	-6	1	-36	-17	4.3	1.9	-0.9	8	-1
Cc1ccc2nc(CSc3nnc(-c4ccncc4)n3C)cc(=O)n2c1	i	-1	6	-27	2	1.3	0.6	5.1	-1	13
S=c1[nH]c2cc(Br)cnc2[nH]1	i	-4	-16	.	-23	-0.1	0.3	-1.0	-2	3
Cc1ccc(/C=N/Nc2ncnc3nc[nH]c23)cc1	i	2	18	65	0	-1.3	4.9	3.0	-2	17
CC(c1ccccc1)n1cc(C(=O)NCc2ccncc2)nn1 (centres undefined)	.	2	8	21	3	-1.9	.	-5.8	-12	3
CC(C)(C)N1CC(COc2ccccc2)OC1=O (centres undefined)	.	1	.	5	-1	-0.3	.	.	-12	.
O=C1c2ccccc2C(=O)N1CCOc1ccccc1	.	-2	.	4	-4	-0.5	.	.	9	.
COc1ccc(CNC(=O)C2CC(c3cccc([N+](=O)[O-])c3)=NO2)cc1 (centres undefined)	i	-4	21	.	-2	3.6	1.5	-8.0	-24	8
Nc1nonc1-c1noc(-c2ccccc2)n1	.	-4	.	16	-11	5.2	.	.	-12	.
O=C(c1cccc(Br)c1)N1CCN(C(=O)c2cccc(Br)c2)CC1	.	1	.	-12	8	-0.6	.	.	4	.
COc1ccc(CCC(=O)OC(C)C(=O)c2ccc(C)cc2)cc1 (centres undefined)	.	-1	.	2	7	1.8	.	.	-4	.
O=C(NCCN1CCCC1)c1ccc2c(c1)N(Cc1cccc(Cl)c1)C(=O)c1ccccc1S2(=O)=O	i	0	1	-19	4	1.3	11	4.1	8	8
CC1N(C)c2cccc3cccc(c23)N1C	.	4	.	.	?	2.7	.	.	-12	.
Cc1cnc(C(=O)NCC(c2ccccc2)c2ccccc2)cn1	i	6	0	-2	6	-3.4	-17	-4.2	-6	7
O=C(O)c1c2c(nc3ccccc13)CCCCC2	.	0	.	-2	-9	2.6	.	.	-8	.
CC(=O)Oc1ccc([N+](=O)[O-])cc1N1C(=O)c2ccccc2C1=O	i	-6	7	1	-4	-6.0	-3.6	1.0	-8	3
Cc1cc(=O)c(C(=O)O)nn1-c1ccccc1C(F)(F)F	i	-6	20	0	-8	0.9	0.8	2.3	-3	14
COC(=O)c1cc(=O)nc2sc3ccccc3n12	.	1	.	12	-31	-4.7	.	.	-10	.
COc1cccc(Sc2cc(N3CCOCC3)nc(-c3ccccc3)n2)c1	.	2	.	-18	-3	0.0	.	.	33	.
Cc1ccc(N2C(=O)CC(Cc3cc(C)cc(C)c3)C2=O)cc1 (centres undefined)	i	3	-6	-2	-4	0.6	-0.7	-1.1	-13	-3
COC(=O)C1(CCSC)NC(c2ccco2)C2C(=O)N(C)C(=O)C21 (centres undefined)	.	0	.	.	-3	-2.7	.	.	-7	.
CC(C)C(=O)Nc1c2c(nn1-c1ccc([N+](=O)[O-])cc1)CS(=O)(=O)C2	i	1	16	-10	-4	0.8	-0.6	-0.4	0	7
COc1ccc(NC(=O)c2cc(C)nn2-c2ccccc2)cc1	i	-1	1	.	-7	2.4	-0.3	1.3	-2	3
O=C(N=Nc1c(O)[nH]c2ccc([N+](=O)[O-])cc12)c1cc(-c2ccccc2Cl)nc2ccccc12	i	29	2	-1	.	.	-1.8	-2.4	-26	0
c1ccc(-n2ncc3c(N4CCC5(CC4)OCCO5)ncnc32)cc1	.	3	.	-2	3	1.1	.	.	-9	.
COc1ccccc1NC(=O)c1ccc(NC(=O)CNC(=O)c2ccc(OC)c(OC)c2)cc1	i	-2	-5	-4	2	3.9	2.2	-1.9	-7	-2
CC(C)CC(=O)NC(=S)NNC(=O)c1cccc([N+](=O)[O-])c1	i	13	-39	32	3	11	2.0	-8.6	13	-34
O=C(CN1C(=O)c2ccccc2S1(=O)=O)Nc1cccnc1	.	-3	.	2	1	0.7	.	.	-8	.
CC(=O)c1ccc(NC(=O)COC(=O)c2c[nH]c3ccccc23)cc1	i	3	-2	1	.	.	-2.2	0.7	.	-2
O=C1CC(c2ccc3ccccc3c2)NN1 (centres undefined)	i	-11	-14	71	.	.	0.7	-4.4	.	-5
Cc1ccc(S(=O)(=O)Nc2c(Cl)c(Cl)c(O)c3ccccc23)cc1	.	2	.	48	45	-2.3	.	.	-62	.
Cc1onc(NC(=O)NC(=O)c2ccccc2F)c1Br	i	0	5	-12	3	?	-0.7	4.9	-3	7
Cc1nn(Cc2ccccc2)c(Cl)c1/C=N/NC(=O)c1cccnc1	i	-4	4	53	-16	-1.9	2.2	0.7	-12	6
Fc1cccc(CN2CCN(C(=S)NCCc3ccccc3)CC2)c1	i	2	6	-13	1	-0.9	-1.1	-1.4	18	17
O=C(c1cnsn1)N1CCCC(Nc2ccc(F)c(F)c2)C1 (centres undefined)	i	.	-10	33	3	0.8	-0.5	-1.2	11	-20
CN(C)C(=O)Cn1c(=O)n(C)c2ccccc21	.	2	.	-2	-9	-1.0	.	.	-9	.
CC1=CC=CC2=N/C(=N\S(=O)(=O)c3ccc(F)cc3F)c3ccccc3CN12	.	10	3	0	-17	-2.5	-0.9	2.1	-17	3
CCOCCCn1c(=S)[nH]c2ncccc2c1=O	.	3	.	21	27	0.0	.	.	-20	.
O=S(=O)(c1cccc(F)c1)N1CCN(c2nc(-c3cccnc3)nc3ccccc23)CC1	i	8	-4	-3	.	.	3.0	2.8	.	-2
Cc1cc(C)c(C)c(Oc2ncnc(N)c2[N+](=O)[O-])c1	.	-13	.	.	2	?	.	.	-13	.
O=C(COc1ccc2ccccc2c1)N1CCN(c2ccccc2O)CC1	.	-1	.	18	-2	-2.0	.	.	-12	.
COc1ccc(/C=C(\NC(=O)c2ccc(C)cc2)C(=O)NCCCN2CCOCC2)cc1OC	i	-1	14	1	-6	0.5	1.2	-1.9	-3	4
CCN(CC)CCN(C(=O)C1=COCCO1)c1nc2cc(C)cc(C)c2s1	i	7	-8	-24	7	-1.4	6.4	0.5	49	-4
COC(=O)C1=C(C(=O)OC)[C@@H]2N(Cc3ccccc3)c3ccccc3[C@@]23C[C@@H](C(=O)OC)N(C(=O)C2CCC2)C3=N1	.	5	.	-8	3	5.1	.	.	0	.
COc1ccc(Nc2nc(-c3cccs3)nc3ccccc23)cc1	i	11	-15	-6	?	1.5	-1.8	10.0	30	6
CC(=O)N1CCN(CC(=O)Nc2cc(S(=O)(=O)N3CCOCC3)ccc2C)CC1	i	-8	8	.	-19	0.7	-1.7	4.1	-1	12
COc1ccc(CN2C(=O)C(C)Oc3ccccc32)cc1 (centres undefined)	i	-4	11	5	2	-3.1	2.7	-0.2	0	5
O=c1c2ccccc2c(C=NCCCN2CCOCC2)c(O)n1Cc1ccc2c(c1)OCO2	i	-2	0.1*	1	34	-1.2	20	1.6*	32	-29*
Cc1ccc(NCC(=O)N=Nc2c(O)[nH]c3ccc([N+](=O)[O-])cc23)cc1	i	3	18	5	-1	-1.1	.	-2.2	-3	7
CCOc1ccccc1-c1nnc(SCC(=O)NC2CC2)n1CC	i	-3	11	-7	.	.	-0.1	-3.0	1	5
Cc1cc(-c2n[nH]c(=S)n2/N=C/c2ccc(C)o2)n[nH]1	i	-5	4	.	-15	-3.6	-3.7	0.6	-10	13
O=C(COc1ccccc1)NCc1nnc2c3ccccc3c(-c3ccccc3)nn12	.	8	-5	-4	19	4.6	-0.8	-2.4	14	3
C1CCc2c(nc3nnnn3c2N2CCOCC2)C1	.	-2	.	-1	9	2.8	.	.	0	.
Cc1csc(=O)n1CCC(=O)OCC(=O)c1ccc(Br)cc1	i	-11	-1	-7	5	.	1.7	-0.2	-17	2
CCNC(=S)Nc1ccc(Cl)cc1Cl	i	-2	-3	14	1	1.0	0.2	-3.5	-15	-5

# (listing goes on)
canonical_smiles	FGF22 binding	Beta apoptosis	Ecoli rRNA inh OD600	ALR H2O2 inh	Calb FLC	RanGTP-Impb inh	AF4-AF9 inh	Ecoli rRNA inh RFP	T cruzi inh	Ecoli rRNA inh
Cc1c(Cl)cccc1NC(=O)COC(=O)c1ccc(CN2CCCC2=O)cc1	i	-1	14	3	.	.	-0.3	1.6	.	15
Cc1ccc(C(=O)NC23CC4CC(CC(C4)C2)C3)c(Cl)c1	i	3	6	5	2	-0.4	-3.1	0.9	-2	1
O=C(NCCc1ccccc1)C1c2ccccc2C(=O)N1Cc1cccs1 (centres undefined)	i	6	-6	.	5	1.6	.	-2.9	-3	-2
CCOC(=O)C1=C(C)NC(C)=C(C(=O)OCC)C1c1ccc(Br)o1	i	-6	-7	9	1	0.3	2.5	-3.0	29	-8
COC(=O)C(C(=O)OC)C(C(C)C)C(C(=O)OC)C(=O)OC	.	0	.	-8	-5	4.4	.	.	1	.
CCOC(=O)c1c(NC(=O)CN2CCCc3ccccc32)sc(C(C)=O)c1C	.	8	.	-1	21	21*	.	.	-18	.
CN(CC(=O)Nc1ccc(F)c(F)c1F)C(=O)CN1C(=O)NC2(CCCC2)C1=O	i	3	1	-17	1	-0.9	0.3	-3.2	3	4
CN(C)c1ccc(C(=O)OCC(=O)N2CCOCC2)cc1	i	-3	0	51	-4	6.4	-1.4	0.5	-10	0
O=C(CSc1ncnc2c1cnn2CCc1ccccc1)Nc1cccc(C(F)(F)F)c1	.	4	-5	-29	-8	1.9	.	0.6	-7	-12
CC(=O)NS(=O)(=O)c1ccc(NC(=O)/C=C/c2ccccc2Cl)cc1	.	-1	.	10	2	0.5	.	.	2	.
COc1ccccc1C(=O)Nc1ccc(S(=O)(=O)NC2=NCCCCC2)cc1	i	-2	9	.	-7	-1.2	-0.7	1.0	0	4
CCOC(=O)c1cc2c(=O)n3ccccc3nc2n(CCOC)c1=NC(=O)c1c(-c2c(F)cccc2Cl)noc1C	i	16	-1	.	-3	.	2.8	3.7	.	18
CC[C@]1(c2ccccc2)C(=O)N(C(=O)OC)N1C(=O)OC	i	-17	13	5	-2	?	-20	7.1	1	14
Nn1c(Cc2cccc3ccccc23)nnc1SCn1nnc2ccccc2c1=O	.	-5	.	23	-6	4.4	.	.	10	.
CCOc1ccccc1N1CCN(C(=O)c2ccccc2SCC(=O)N2CCCC2)CC1	i	-7	1	18	3	1.6	6.2	4.8	3	1
COc1cc(/C=C2\SC(=S)N(CCC(=O)Nc3ccccc3)C2=O)cc(OC)c1OC	i	7	29	-1	-2	-10	-0.8	9.6	11	24
CCOC(=O)C1C(c2ccccc2)NC(=S)NC1(C)O (centres undefined)	i	1	-12	5	21	0.3	-0.1	-2.4	-10	-9

# From PubChem
